High-throughput results: PubChem, several laboratories
HNF4A DNA FP = change in binding of human HNF4A to DNA, primary screen, biochemical, fluorescence polarization, FITC-DNA; Hepatocyte nuclear factor 4-alpha (Homo sapiens), P41235; 1 h; activity change, % at 10 µM; 360,000 compounds, 0.3% hits; in the data active means activity change above about 30%, passing the limit was not always enough;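 further: controls were the assay level and a saturating level of protein; the project sought stronger binding though the title names inhibitors; some compounds called inactive have numbers as strong as hits; positive values seem to mean higher polarization but the record does not say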
Target sequence (P41235 whole entry, looked up): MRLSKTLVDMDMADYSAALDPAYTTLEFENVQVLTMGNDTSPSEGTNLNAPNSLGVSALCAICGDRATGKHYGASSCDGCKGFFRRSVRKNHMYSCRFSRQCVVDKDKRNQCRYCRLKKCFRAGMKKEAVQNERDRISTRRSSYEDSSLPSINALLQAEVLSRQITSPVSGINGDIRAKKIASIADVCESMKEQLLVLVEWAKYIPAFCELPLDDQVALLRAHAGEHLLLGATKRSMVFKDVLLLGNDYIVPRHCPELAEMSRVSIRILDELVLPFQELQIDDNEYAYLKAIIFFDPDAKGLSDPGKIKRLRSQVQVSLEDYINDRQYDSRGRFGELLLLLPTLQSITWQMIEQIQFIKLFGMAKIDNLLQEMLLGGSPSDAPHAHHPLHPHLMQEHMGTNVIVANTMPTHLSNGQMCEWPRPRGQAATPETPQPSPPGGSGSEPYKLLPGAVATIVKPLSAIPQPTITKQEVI
UCH37 inh = inhibitors of human UCH37 deubiquitinase, primary screen, biochemical, Ub-AMC cleavage, fluorescence | purified proteasome/UCH37 | inhibition, % (concentration not given with the values) | 330,000 compounds, 0.33% hits | AID 588478, 2011;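 active means mean of two replicates above 20%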;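 further: 0% = compound-free wells with enzyme and 100% = wells lacking proteasome; stock transfer was 100 nL into about 20 µL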
Target sequence (Q9Y5K5 whole entry, looked up): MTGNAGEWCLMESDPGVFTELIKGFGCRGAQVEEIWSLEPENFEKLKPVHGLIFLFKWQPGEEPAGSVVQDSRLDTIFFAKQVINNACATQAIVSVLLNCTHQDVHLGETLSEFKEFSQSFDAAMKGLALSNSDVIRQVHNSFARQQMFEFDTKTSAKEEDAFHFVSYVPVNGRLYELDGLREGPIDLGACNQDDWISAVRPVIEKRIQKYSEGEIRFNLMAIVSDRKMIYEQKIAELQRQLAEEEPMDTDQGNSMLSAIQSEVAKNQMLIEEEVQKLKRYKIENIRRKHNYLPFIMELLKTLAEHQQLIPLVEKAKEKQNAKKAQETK
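Material: human UCH37 enzyme supplied as purified proteasome complex / Amount: 0.15 nM proteasome as dispensed / Buffer or medium: pH 7.4 Tris-HCl (50 mM) with ovalbumin, ATP-MgCl2, DTT / Times: preincubation 30 min, reaction 25 min, room temperature / Technique: AMC fluorescence from Ub-AMC cleavage, excitation 355 nm, emission 460 nm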
E coli growth = E. coli growth inhibition, primary screen, OD600; 330,000 compounds, 0.21% hits; Escherichia coli growth, 23 h; stronger effect = lower value; OD600 absorbance (test concentration not listed);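 active means OD600 absorbance below the run mean of sample wells minus 3.6 SD, in any replicate, cut at about 0.56 in these data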;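 further: stock transfer was 300 nL into about 60 µL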
AF4-AF9 inh = inhibitors of AF4 peptide binding to AF9, primary screen, biochemical, AlphaScreen, biotin-AF4 peptide, FLAG-AF9, single point; Protein AF-9 (Homo sapiens), P42568; inhibition, % at 10 µM; 350,000 compounds, 0.47% hits; AID 651704, 2012;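 active means every replicate reaching a set inhibition limit, whatever the replicate mean, cut at about 25% in these data; inconclusive means mean inhibition reaches that limit but some replicates miss it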;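 further: 0% = plate neutral control median and 100% = total signal loss; the record names both 10 and 1 µM as test concentration; the first replicate is given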
RanGTP-Imp inh = inhibitors of RanGTP-importin-beta interaction, primary screen, biochemical, FRET, CFP-Ran, YFP-importin-beta, homogeneous | AID 2216, 2009 | Ran GTPase (GTP-bound) - importin-beta complex | cell-free CFP-Ran/YFP-importin-beta FRET ratio | 300,000 compounds, 1.1% hits | inhibition, % (concentration not given with the values);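 active means most replicates above 15%; inconclusive means exactly half above 15%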;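 further: 0% = DMSO wells and 100% = Ran loaded with GDP instead of GTP; wells of about 40 µL received 100 nL stock; the first replicate is given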
Vif A3G = inhibitors of Vif binding to APOBEC3G peptide, primary screen, biochemical, TR-FRET, GST-Vif 1-94, biotin-A3G peptide, dose response retest (AID 1117319); TR-FRET GST-Vif / biotin-A3G peptide binding; higher % means a stronger effect; test concentration not given here; strong numbers were not always called active; inhibition, %; hits with a dose series show IC50 in µM; 260,000 compounds, 0.57% hits; Virion infectivity factor (Human immunodeficiency virus type 1 group M subtype B (isolate …;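 active means above the screen mean plus three standard deviations and confirmed in dose response; inconclusive means results disagree or hit not tested in dose response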;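 further: Vif residues 1-94 fused to GST binding biotinylated APOBEC3G peptide 110-148; 0% = full assay without inhibitor and 100% = GST in place of GST-Vif; retest series ran down from 100 µM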
FGF22 binding = binders of human FGF22 protein, primary screen, FGF22 synaptogenesis inhibitor project, biophysical, thermal shift, single point | recombinant FGF22 thermal shift, SYPRO orange fluorescence; percent of sucrose octasulfate shift, DMSO zero | calls only at 9.99 µM | 340,000 compounds, 1.5% hits;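 active means melting point raised past a set limit in the mean and every replicate; inconclusive means no clear call; three in four hits are not shown here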
Target sequence (Q9HCT0 whole entry, looked up): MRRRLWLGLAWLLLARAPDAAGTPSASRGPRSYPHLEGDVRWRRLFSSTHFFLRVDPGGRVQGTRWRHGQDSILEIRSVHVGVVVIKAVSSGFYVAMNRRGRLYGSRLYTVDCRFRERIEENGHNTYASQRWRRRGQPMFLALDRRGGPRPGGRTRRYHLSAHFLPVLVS
The depositor's hits bear a star; i = inactive; ? = inconclusive; · = not tested or not shown; & = joins results of further samples. This is a subset, so the mix of outcomes need not match the whole.

Sample of the layout (2 entries):
Results follow in this order: HNF4A DNA FP	UCH37 inh	E coli growth	AF4-AF9 inh	RanGTP-Imp inh	Vif A3G	FGF22 binding
COCCN(Cc1nnc(-c2cccs2)o1)C(=O)CN1C(=O)NC2(CCCCC2)C1=O
 : 3.0	1.5	0.72	-0.8	·	18%	i
CCc1ccc(NC(=O)N2CCc3ccccc3C2)cc1
 : -1.9	0.9	0.64	-0.4	-4.7	-7%	i

Results, from the start:
Results follow in this order: HNF4A DNA FP	UCH37 inh	E coli growth	AF4-AF9 inh	RanGTP-Imp inh	Vif A3G	FGF22 binding
COCCN(Cc1nnc(-c2cccs2)o1)C(=O)CN1C(=O)NC2(CCCCC2)C1=O
 : 3.0	1.5	0.72	-0.8	·	18%	i
CCc1ccc(NC(=O)N2CCc3ccccc3C2)cc1
 : -1.9	0.9	0.64	-0.4	-4.7	-7%	i
Cc1ccc2[nH]c(=O)c(CN(Cc3cccnc3)Cc3nnnn3CCN3CCOCC3)cc2c1
 : -1.9	-7.2	0.71	·	-1.1	8%	·
CCOc1ccc(C2/C(=C(/O)c3ccc(S(=O)(=O)N4CCCCC4)cc3)C(=O)C(=O)N2CCCOC)cc1OC (stereo unspecified)
 : 2.3	11	0.71	-4.3	-1.0	2%	i
CCC1=NN2C(=N)/C(=C/c3ccc(OS(=O)(=O)c4ccccc4)cc3)C(=O)N=C2S1
 : 33*	2.0	0.71	·	8.8	-11%	·
O=C1C=C(c2cccc(Cl)c2)C[C@@H](c2ccc3c(c2)OCO3)C1
 : -3.6	2.9	·	-25	·	·	i
COc1ccc(C(=O)COC(=O)c2ccccn2)c(OC)c1
 : 9.2	3.1	0.69	1.3	·	-2%	i
CC1(C2CC2)NC(=O)N(CC(=O)Nc2cc(S(=O)(=O)N3CCCCC3)ccc2Cl)C1=O (stereo unspecified)
 : 3.8	1.2	0.69	1.8	·	·	i
CCCN1CCC(=O)N([C@H](CSc2ccc(C)cc2)Cc2ccccc2)CC1
 : -0.8	0.7	·	2.4	-0.1	·	i
CCN(c1ccccc1)S(=O)(=O)c1ccc(Cl)c(C(=O)OCC(=O)c2[nH]c(C)c(C(C)=O)c2C)c1
 : -1.8	-0.7	0.72	-2.2	1.3	0%	i
CC1(C)CC(=O)C2=C(C1)Nc1ncnn1C2c1ccccn1 (stereo unspecified)
 : -0.5	2.3	0.69	·	3.7	?	·
O=C(Cc1ccccc1[N+](=O)[O-])NCc1ccc2c(c1)OCO2
 : 2.6	2.8	0.71	·	?	0%	·
CCOC(=O)CSc1nc2nc(Cl)c(Cl)nc2[nH]1
 : 2.0	·	·	-1.8	·	3%	i
O=C(CSc1cccc2cccc(Cl)c12)NCc1cccs1
 : -0.5	0.7	0.7	1.4	-3.8	·	i
C=CCN(C(=O)Nc1ccc(OC)cc1)c1nnc(-c2ccncc2)s1
 : -0.3	·	·	-0.8	-1.6	-4%	·
COCCNC(=O)C1(C)CCCN(C(=O)c2cc(F)ccc2C)C1 (stereo unspecified)
 : 1.7	·	·	-14	·	·	i
CCSc1nnc(NC(=O)[C@H](C)N2C(=O)C3CC=CCC3C2=O)s1 (stereo partly specified)
 : -0.7	-0.9	0.72	-2.1	·	·	i
O=C(CCc1ccccc1)NCCCNC(=O)CCc1ccccc1
 : 1.2	0.2	0.72	-1.1	·	·	i
CCCCC(=O)OCC(=O)c1[nH]c(C)c(C(C)=O)c1C
 : 2.4	2.5	0.7	3.4	-4.5	·	i
COc1ccc(-c2csc(NC(=O)c3cc(=O)c4ccccc4o3)n2)cc1OC
 : 3.3	-0.1	0.64	0.6	6.0	-3%	i
CCN(Cc1cc2ccccc2[nH]c1=O)C(=O)c1cccc([N+](=O)[O-])c1
 : ·	2.2	0.7	-2.4	2.1	9%	i
CSc1nc(C)nc(N/C=C(\C#N)S(=O)(=O)c2ccccc2Cl)n1
 : -2.6	8.9	0.68	-5.3	5.0	-8%	i
COC(=O)C1=C(C)N(c2ccc(S(N)(=O)=O)cc2)C(=O)C1
 : -0.7	2.4	0.72	·	0.1	20%	·
COC(=O)c1cccc(-n2cnnn2)c1
 : 3.0	1.7	0.65	·	0.2	22%	·
CCCOc1ccc(-c2c(=O)n(OCC(=O)OCC)c3ccccc3[n+]2[O-])cc1
 : 5.6	-40	0.69	1.0	-2.2	·	i
COc1cccc(C2(O)CCN(CC(=O)NCC3CC3)CC2)c1
 : 4.7	3.1	0.74	0.1	-0.6	?	i
CCCCOc1ccc(-c2n[nH]c(=S)n2Cc2ccccc2)cc1
 : 0.5	1.0	0.67	-3.0	1.2	-8%	i
CSCc1c(C(=O)N2CCCc3ccccc32)oc2ccccc12
 : -1.1	4.4	0.68	9.3	·	4%	i
N#CCCNC(=O)Cn1c(COc2ccc(Cl)cc2)nc2ccccc21
 : 0.6	6.6	0.7	0.1	5.8	·	i
O=C(OCC(=O)N1CCc2ccccc21)c1cccnc1
 : 4.8	0.4	0.7	·	7.3	-17%	·
O=C(N/N=C/c1ccco1)c1cc(-c2ccccc2)n[nH]1
 : 3.2	·	·	·	2.8	9%	·
CCCCOc1ccc(CN2CCSCC2)cc1
 : -2.1	0.4	0.68	3.5	3.9	·	i
Cc1ccccc1N(CC(=O)N1CCCCCC1)S(C)(=O)=O
 : -3.7	3.7	0.73	-1.4	-1.9	·	i
Cc1ccn2c(c1)nc(=O)c1cc(S(=O)(=O)N3CCCCC3)ccc12
 : -0.4	·	·	-2.0	2.2	·	i
COc1ccc(C(CNC(=O)c2ccc(OCC3CCCO3)cc2)N2CCOCC2)cc1 (stereo unspecified)
 : 2.3	1.6	0.71	·	-0.4	-5%	·
CN(C)/C=C/C1=C([N+](=O)[O-])C(c2cccc([N+](=O)[O-])c2)NC(=O)N1 (stereo unspecified)
 : -1.4	27*	0.72	4.3	-0.5	26%	i
C=CCc1ccc(OCC(O)CN2CCC(Cc3ccccc3)CC2)c(OC)c1 (stereo unspecified)
 : 1.2	2.6	0.7	·	-4.3	-4%&-5%	·
NC(=O)NOCc1c(F)cccc1Cl
 : -1.3	-1.1	0.68	-2.3	1.5	·	i
CCCN1CCN(CCCNC(=O)c2ccc3nc(N4CCCCC4)sc3c2)CC1
 : 5.8	5.6	0.72	-3.6	2.0	·	i
O=C1C2C3C=CC(CC3)C2C(=O)N1/N=C/c1c[nH]c2ccccc12 (stereo unspecified)
 : -7.4	·	·	-0.2	-1.7	-7%	i
COCc1ccc(C(=O)N2CCCC(CCC(=O)NCc3ccccc3F)C2)o1 (stereo unspecified)
 : -0.7	3.1	0.69	-2.2	-1.1	·	i
CN1CCN(NC(=O)c2cccc(F)c2)CC1
 : -2.2	4.3	0.78	·	3.0	6%	·
Cc1nc2cc(NC(=O)Nc3nccs3)ccc2n1C
 : 3.8	1.7	0.63	·	6.2	4%	·
COc1ccc(-c2nc3ccc(C(=O)NCC(OC)OC)cc3nc2-c2ccc(OC)cc2)cc1
 : -1.2	-72	0.73	-3.9	16*	·	i
Cc1cc2c(c(=O)n1C)C(C(C)C)C(C#N)=C(N)O2 (stereo unspecified)
 : -3.0	·	·	·	9.3	4%	·
CC1(C(=O)Nc2ccc3c(c2)OCO3)Cc2c(-c3ccccc3)ccnc2O1 (stereo unspecified)
 : -3.8	·	·	1.7	·	·	i
O=C(NCc1ccccc1)C1CCCN(S(=O)(=O)c2cccc3nsnc23)C1 (stereo unspecified)
 : 1.6	0.1	0.68	1.2	-2.5	·	i
Cc1cccc(C)c1C(OCCN(C)C)C1CCCCC1 (stereo unspecified)
 : -2.8	4.2	0.64	·	-0.1	5%	·
O=C(Nc1cccc(S(=O)(=O)N2CCOCC2)c1)C1CC(=O)N(c2ccc3c(c2)OCCO3)C1 (stereo unspecified)
 : 1.0	·	·	-5.0	·	-11%	i
COc1ccc(OC)c(NC(=S)NN2CCN(C)CC2)c1
 : 4.8	-1.3	0.73	·	4.3	-11%	·
CCOC(=O)C(=CNc1ccccc1N1CCOCC1)C(=O)OCC
 : -0.3	-1.4	0.68	-1.8	-1.2	-6%	i
COC(C(=O)Nc1ccnn1C1CCN(Cc2ccc(CO)o2)CC1)c1ccccc1 (stereo unspecified)
 : 1.7	0.7	0.66	-0.8	2.0	·	i
Cc1cc2cc(C(c3nnnn3C(C)(C)C)N(Cc3ccco3)CC3CCCO3)c(=O)[nH]c2cc1C (stereo unspecified)
 : 43*	-0.6	0.72	·	2.1	11%	·
Cc1ccc(C)c(SCC(=O)OCC(=O)NCCNC(=O)COC(=O)CSc2cc(C)ccc2C)c1
 : 3.4	1.8	0.62	0.5	4.5	-3%	i
Cc1cc2c(SCC(=O)N3CCN(c4ccccc4)CC3)ncnc2s1
 : 3.4	5.0	0.66	?	?	-8%	i
COc1cc(S(=O)(=O)NC2CCCC2)c(OC)cc1Cl
 : -9.0	2.9	0.71	·	-2.5	0%	·
Nc1nc(-c2cccnc2)nn1C(=O)COc1ccccc1
 : 1.1	1.9	0.7	·	4.3	7%	·
Cc1cccn2c(CN(C)CC3Cc4ccccc4O3)c(C(=O)N3CCCCC3)nc12 (stereo unspecified)
 : 2.2	0.7	0.68	-0.4	-0.4	-1%	·
Cc1ccccc1-n1c(C)cc(/C=C2\NC(=O)NC2=O)c1C
 : 3.7	-4.5	0.7	·	0.9	?	·
COc1ccc(NC(=O)Cn2cccc2)cc1Cl
 : -5.1	4.4	0.69	8.0	-2.6	7%	i

(more compounds)
Results follow in this order: HNF4A DNA FP	UCH37 inh	E coli growth	AF4-AF9 inh	RanGTP-Imp inh	Vif A3G	FGF22 binding
COc1cc(C(=O)NC(=S)Nc2ccc3ccccc3c2)cc(OC)c1OC
 : 2.3	·	·	-1.6	·	1%	i
CN(C)CCN1CCc2ccccc21
 : -2.5	1.9	0.73	·	6.3	17%	·
COc1cc(C)ccc1S(=O)(=O)N1CCCCCC1
 : 0.6	3.1	0.69	-1.9	-1.7	·	i
CCOc1ccc(N(CC(=O)NCCc2ccc(Cl)cc2)S(=O)(=O)c2c(C)[nH]c(=O)[nH]c2=O)cc1
 : 1.7	-0.4	0.63	-0.2	-0.1	2%	i
C=C(C)CSc1nnc2n(N)c(=O)c3ccccc3n12
 : 1.9	3.4	0.69	·	1.9	11%	·
O=C(NCCc1c[nH]c2ccc(Cl)cc12)c1cccnc1
 : 2.2	2.4	0.65	-12	-1.4	6%	i
O=C(CSc1ncnc2c1cnn2-c1ccc(Cl)cc1)NCc1ccc2c(c1)OCO2
 : -1.6	·	·	·	-1.5	19%	·
